# HNF4A DNA FP: change in binding of human HNF4 alpha to DNA. P41235. HNF4a-FITC DNA binding, fluorescence polarization, 1 h. activity change, % at 10 µM. 360,000 compounds, 0.3% hits; in the data active = activity change above about 30%, passing the limit was not always enough;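 note: controls were the assay level and a saturating level of protein; the project sought stronger binding though the title names inhibitors; some compounds called inactive have numbers as strong as hits; positive values seem to mean higher polarization but the record does not say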
# Target sequence (P41235 whole entry, looked up): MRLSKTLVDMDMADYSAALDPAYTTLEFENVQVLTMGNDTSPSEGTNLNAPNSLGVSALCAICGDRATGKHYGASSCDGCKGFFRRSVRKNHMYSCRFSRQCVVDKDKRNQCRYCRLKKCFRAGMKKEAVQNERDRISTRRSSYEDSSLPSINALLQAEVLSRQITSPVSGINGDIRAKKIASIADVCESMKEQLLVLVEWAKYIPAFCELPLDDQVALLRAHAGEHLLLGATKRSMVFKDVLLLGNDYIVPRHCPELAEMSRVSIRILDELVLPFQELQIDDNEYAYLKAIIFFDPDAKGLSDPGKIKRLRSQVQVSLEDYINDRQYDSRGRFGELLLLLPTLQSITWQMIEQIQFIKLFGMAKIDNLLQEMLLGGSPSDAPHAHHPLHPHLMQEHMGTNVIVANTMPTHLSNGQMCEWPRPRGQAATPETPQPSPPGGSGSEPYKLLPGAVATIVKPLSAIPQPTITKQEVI
# FGF22 binding: binders of recombinant human FGF22 by thermal shift; calls only at 9.99 µM; SYPRO orange fluorescence; percent of sucrose octasulfate shift, DMSO zero; Q9HCT0; 340,000 compounds, 1.5% hits;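 active = melting point raised past a set limit in the mean and every replicate; three in four hits are not shown here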
# Target sequence (Q9HCT0 whole entry, looked up): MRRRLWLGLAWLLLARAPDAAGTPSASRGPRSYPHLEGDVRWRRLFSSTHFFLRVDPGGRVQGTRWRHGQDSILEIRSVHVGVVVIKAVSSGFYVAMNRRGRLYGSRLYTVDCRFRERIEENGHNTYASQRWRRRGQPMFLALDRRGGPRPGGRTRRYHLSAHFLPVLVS
# B2AR ag: activates human beta-2 adrenergic receptor causing internalization | response, % (no concentration beside the values) | 340,000 compounds, 0.43% hits | Am2.2-beta2AR cells, FAP receptor internalization, flow cytometry; reference of the scale not given here | P07550;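 active = response above a set limit, near 3 SD of response in nonfluorescent compounds, cut at about 42% in these data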;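 note: stock transfer was 100 nL into about 11 µL; a reference agonist was the positive control; negative values mostly stem from fluorescent compounds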
# Target sequence (P07550 whole entry, looked up): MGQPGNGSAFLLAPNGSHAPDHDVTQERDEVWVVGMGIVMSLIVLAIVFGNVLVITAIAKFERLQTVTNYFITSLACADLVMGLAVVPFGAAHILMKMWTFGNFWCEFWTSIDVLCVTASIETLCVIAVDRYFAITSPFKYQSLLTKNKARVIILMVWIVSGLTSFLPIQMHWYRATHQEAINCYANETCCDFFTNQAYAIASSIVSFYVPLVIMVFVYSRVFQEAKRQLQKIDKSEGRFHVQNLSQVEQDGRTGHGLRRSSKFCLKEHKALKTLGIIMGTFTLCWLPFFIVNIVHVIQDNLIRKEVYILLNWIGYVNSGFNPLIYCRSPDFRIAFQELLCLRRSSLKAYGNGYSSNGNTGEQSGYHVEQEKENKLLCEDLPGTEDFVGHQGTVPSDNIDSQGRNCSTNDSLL
# ALR inh: human ALR oxidase inhibition via reduced H2O2; inhibition, % (concentration not given with the values); purified ALR, DTT oxidation, H2O2 HRP-luminol luminescence; 290,000 compounds, 3.8% hits; P55789;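 active = mean and each replicate at 75% or more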;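 note: stock transfer was 7.5 nL into about 7.5 µL; 0% = neutral wells and 100% = wells with inactivated enzyme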
# Ecoli growth: blocks Escherichia coli growth | OD600, 23 h; active compounds read low | OD600 absorbance (concentration not given with the values) | 330,000 compounds, 0.21% hits;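 active = OD600 absorbance below the run mean of sample wells minus 3.6 SD, in any replicate, cut at about 0.56 in these data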;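 note: stock transfer was 300 nL into about 60 µL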
# UCH37 DUB inh: human UCH37 deubiquitinating enzyme inhibition; Q9Y5K5; purified proteasome/UCH37, Ub-AMC cleavage fluorescence; inhibition, % (concentration not given with the values); 330,000 compounds, 0.33% hits; AID 588478;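 active = mean of two replicates above 20%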;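 note: 0% = compound-free wells with enzyme and 100% = wells lacking proteasome; stock transfer was 100 nL into about 20 µL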
#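 Schedule: 30 min plus 25 min, room temperature / Material: human UCH37 within purified proteasomes / Technique: AMC fluorescence intensity at 355/460 nm / Buffer or medium: pH 7.4 Tris-HCl (50 mM) with ovalbumin, ATP-MgCl2, DTT / Controls: wells without proteasome as full block, compound-free enzyme plus substrate as uninhibited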
# LANA-H2B inh: blocks KSHV LANA binding to histone H2A/H2B. Q9QR71. cell-free LANA-H2A/H2B peptide, fluorescence polarization. inhibition, % (concentration not given with the values). 320,000 compounds, 0.6% hits. AID 2629; in the data active = inhibition mostly above about 10%, no sharp cut-off; inactive = mostly below about 6.7%;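 note: stock transfer was 7.5 nL into about 10 µL; 0% = median of vehicle wells and 100% = median of positive control wells; one replicate is shown; the record names a cut of 25% in any replicate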
# Active calls of the source: *; i = inactive; nt = not tested or not shown; + = active, no number. A portion of the library; count on the stated rates, not on these rows.
HNF4A DNA FP	FGF22 binding	B2AR ag	ALR inh	Ecoli growth	UCH37 DUB inh	Compound	LANA-H2B inh
-0.2	nt	4	-23	0.68	-0.2	O=C(O)C(c1ccccc1)N1CCCCC1 (stereo unspecified)	1.8
0.8	i	14	-6	0.7	-0.2	O=C(Nc1cccc(S(=O)(=O)NCc2ccco2)c1)c1cc(-c2ccccc2)nc2ccccc12	1.9
3.8	nt	7	nt	0.63	-123	CCOCCCNC(=S)N(CCN(CC)CC)Cc1cc2cc3c(cc2[nH]c1=O)OCCO3	1.4
2.3	i	0	-2	0.64	1.2	O=C(COc1ccccc1Cl)N(Cc1cccs1)C1CCS(=O)(=O)C1 (stereo unspecified)	4.6
6.8	i	8	29	0.59	6.9	Cc1ccc(C(=O)NNC(=S)NC(=O)c2ccccc2)cc1	-1.0
-2.1	nt	6	-27	nt	nt	COC(=O)c1ccc(NC(C(=O)OC)C(C)C)c([N+](=O)[O-])c1 (stereo unspecified)	-2.0
0.3	nt	3	-11	0.68	4.8	CCc1ccc(C2(C)SC(NC(C)=O)=NN2C(C)=O)cc1 (stereo unspecified)	-2.4
-2.5	nt	17	-3	0.72	-17	Cn1nc(-c2ccccc2F)c2cc(C(=O)Nc3ccc4c(c3)OCCO4)sc21	0.2
5.4	i	4	nt	0.68	-0.2	CCOc1ccccc1NC(=O)COC(=O)c1ccccc1SCC(=O)N1CCCC1	2.5
-2.0	nt	-10	-3	0.79	-4.6	O=C(CN1CCC(n2nnc3cc(F)ccc32)CC1)NCCc1ccccc1	0.2
-1.3	nt	-7	-8	0.67	3.2	Cc1ccc(NC(=O)Cn2cnc3sc(C(=O)NCc4ccco4)c(C)c3c2=O)cc1Cl	-5.1
-1.9	i	-21	-3	0.69	-427	CCN(CC)C(=O)c1cc2c(=O)n3cccc(C)c3nc2s1	8.3
-0.4	i	-3	2	0.68	-0.1	O=C(CCCCC(=O)Nc1ccccc1Cl)Nc1ccccc1Cl	-1.2
1.2	nt	4	-1	0.68	-75	N#Cc1nc(-c2ccccc2F)oc1NCCc1ccccc1	0.8
1.2	+	1	-2	0.7	1.1	O=C(NN1C(=O)C2C3C=CC(O3)C2C1=O)c1ccccc1 (stereo unspecified)	0.0
2.5	i	5	-7	nt	nt	COC(=O)Nc1ccc(S(=O)(=O)N2CCCC(C(=O)NCC3CCCO3)C2)cc1 (stereo unspecified)	3.4
-0.2	i	8	45	nt	nt	COc1cccc(/C=N\NC(=O)Cn2nnc3ccccc32)c1O	3.2
-3.6	i	2	1	nt	nt	Cc1ccc(/C=N\NC(=O)C2CN(S(=O)(=O)c3ccccc3)CCN2S(=O)(=O)c2ccccc2)cc1 (stereo unspecified)	0.5
1.2	i	0	-1	nt	1.3	CCCCCCCCCC(=O)N[C@H](CN1CCOCC1)[C@H](O)c1ccccc1	-7.3
1.6	i	3	-9	0.68	4.5	Cc1ccc(S(=O)(=O)N(C)C)cc1NC(=S)NCc1ccco1	1.0

# Molecules shown so far with two or more sulfur atoms, in the order listed:
HNF4A DNA FP	FGF22 binding	B2AR ag	ALR inh	Ecoli growth	UCH37 DUB inh	Compound	LANA-H2B inh
2.3	i	0	-2	0.64	1.2	O=C(COc1ccccc1Cl)N(Cc1cccs1)C1CCS(=O)(=O)C1 (stereo unspecified)	4.6
-3.6	i	2	1	nt	nt	Cc1ccc(/C=N\NC(=O)C2CN(S(=O)(=O)c3ccccc3)CCN2S(=O)(=O)c2ccccc2)cc1 (stereo unspecified)	0.5
1.6	i	3	-9	0.68	4.5	Cc1ccc(S(=O)(=O)N(C)C)cc1NC(=S)NCc1ccco1	1.0

# Later entries:
HNF4A DNA FP	FGF22 binding	B2AR ag	ALR inh	Ecoli growth	UCH37 DUB inh	Compound	LANA-H2B inh
-1.6	i	3	-4	0.65	6.6	Cc1c(C(=O)NCc2ccccc2CN2CCCC2)oc2ccc(F)cc12	-4.4
-33	i	11	31	nt	nt	Cc1ccc(C(=O)O)cc1N1C(=O)c2cccc3c([N+](=O)[O-])ccc(c23)C1=O	6.3
0.3	nt	1	nt	0.66	-2.5	C1=CC2CC1CC2CN1CCN(Cc2ccccc2)CC1 (stereo unspecified)	3.7
-3.3	i	4	-2	0.66	1.3	O=C(COC(=O)c1ccc(S(=O)(=O)Nc2ccccc2)cc1)NC1CCCC1	2.6
-4.3	nt	6	-2	nt	0.1	Fc1ccc(CSc2nncn2NC/C=C/c2ccccc2)cc1	5.0
1.0	i	-7	-5	nt	nt	CC(C)[C@H](NC(=O)OC(C)(C)C)C(=O)N/N=C/c1cccc2nccnc12	6.9
-0.8	i	-3	0	0.69	4.0	CN(C(=O)c1cnccn1)c1c(N)n(Cc2ccccc2)c(=O)[nH]c1=O	3.7
-1.1	i	6	-29	0.7	2.1	CN(C)CCOc1cccc(Br)c1	0.3
1.1	i	16	4	0.66	3.4	Cc1ccc(C(OCC(O)CNC(CO)C(O)c2ccc([N+](=O)[O-])cc2)c2ccccc2)cc1 (stereo unspecified)	2.8
1.5	nt	-9	4	0.74	-0.1	CCOc1ccc(N(CC(=O)NC2CCCCC2)C(=O)CNC(=O)c2ccco2)cc1	26*
0.3	i	6	-5	0.7	-11	Cc1cc(C)c2nc(N(CCN(C)C)C(=O)/C=C/c3cccs3)sc2c1	-2.3
0.1	i	8	21	0.68	1.2	CCC(C(=O)NCCc1c[nH]c2cc(OC)ccc12)c1ccccc1 (stereo unspecified)	0.1
-3.4	nt	-4	37	0.68	0.7	COc1ccc(-c2noc3c2-c2nc(C(C)C)sc2CC3)cc1	1.6
5.3	nt	-6	-3	0.69	4.1	Cc1cc(=S)[nH]c2c(C)cccc12	-5.0
-2.1	i	5	66	0.69	1.6	CCOc1ccc(-n2c(Cc3cc(=O)[nH]c(=O)[nH]3)nnc2SCc2cccnc2)cc1	-2.8
nt	nt	nt	0	0.61	1.2	c1ccc(Cc2ccc(OCCCNC3CCCC3)cc2)cc1	-0.4
2.7	i	-3	4	nt	0.9	CCOC(=O)/C=C1\CN(Cc2cc(OC)c(OC)c(OC)c2)S(=O)(=O)c2ccccc21	-0.9
0.3	nt	-5	-2	0.71	-37	CCOC(=O)C1=C(C(F)(F)F)Nc2ncnn2C1c1cc(OC)ccc1OC (stereo unspecified)	-2.3
2.7	i	3	-1	nt	nt	O=C(O)c1ccc(N/N=C/c2cccc3cccnc23)cc1	1.7
0.7	i	-2	0	nt	22*	COCCN1C(=O)N[C@@H](c2ccccc2)[C@@H](C(=O)OC)[C@H]1C	2.9
2.2	nt	3	2	0.72	-0.3	CCCCn1nc(C(=O)O)ccc1=O	1.5
0.2	i	0	nt	0.71	1.2	Cc1ccc2c(C)c(C(=O)N3CCCC(C(N)=O)C3)oc2c1C (stereo unspecified)	nt
-0.8	i	-14	nt	0.66	-31	O=C(/C=C/c1ccc(-c2ccc(F)cc2)o1)N1CCCC1	-19
-3.1	i	-11	5	nt	nt	COc1ccccc1-c1cc(C(=O)N/N=C\c2cn(C)nc2C)c2ccccc2n1	-3.8
-1.4	nt	4	-1	0.68	4.6	CC12CN3CC(C)(CN(C1)C3c1cc(Br)ccc1O)C2=O (stereo unspecified)	3.6
1.6	i	-2	36	0.64	5.6	COc1ccc2c(c1OC)C(=O)OC2Nc1nc(-c2cccc([N+](=O)[O-])c2)cs1 (stereo unspecified)	-2.0
2.7	i	6	-8	0.71	0.2	CCCN(CCO)C1CCN(CCc2ccccc2)CC1	0.1
2.2	nt	1	3	0.68	3.1	CC(C)c1ccc(/C=C/C(=O)NNC(=O)c2cccnc2)cc1	1.4
0.5	nt	6	-4	0.69	5.2	C=CCN(CC=C)S(=O)(=O)c1ccc(NC(=S)NC(=O)Cc2ccc(OC)cc2)cc1	-3.4
2.3	i	-7	-2	0.66	4.3	O=C(NCc1ccncc1)/C(=C/c1cccc([N+](=O)[O-])c1)NC(=O)c1ccccc1	-5.7
1.0	i	-11	-2	0.74	-0.2	O=c1c2ccccc2nc(SCc2nnc(-c3ccccc3)o2)n1-c1ccccc1	-1.0
47*	i	11	-4	0.72	4.6	COC(=O)c1ccc2c(c1)NC(=O)C(N(CC(C)C)CC(C)C)S2 (stereo unspecified)	-0.4
-1.5	nt	-4	nt	0.75	1.7	CCN(C(=O)COC(=O)c1cc(C)n(-c2ccc(F)cc2)c1C)C1CCS(=O)(=O)C1 (stereo unspecified)	nt
0.6	i	-10	-45	0.7	2.7	COc1cccc(OCC(=O)Nc2c3c(nn2-c2ccccc2)CS(=O)(=O)C3)c1	-11
2.0	nt	-12	-2	0.71	-1.3	O=C(Nc1ccccc1)N1CCn2c(nc3ccccc32)C1	0.6
2.3	i	0	-10	0.66	3.4	Cc1ccc(N(C(=O)c2ccco2)C2C=CS(=O)(=O)C2)cc1 (stereo unspecified)	0.2
3.7	i	25	-21	0.65	5.1	Cc1ccc(C23CC4CC(CC(C(=O)NC(C)C(=O)O)(C4)C2)C3)cc1 (stereo unspecified)	1.3
-2.6	i	-9	-4	0.66	1.6	COCCCNC(=O)CSc1nc2cc(S(=O)(=O)N3CCCCC3)ccc2o1	1.3
2.1	i	3	nt	0.71	0.3	COc1ccc(S(=O)(=O)N2CCOCC2)cc1C(=O)NCc1c(C)nn(Cc2ccccc2)c1C	nt
-1.8	i	5	-2	0.74	-2.4	CCN1C(=O)/C(=C\N2CCN(c3ccc(F)cc3)CC2)SC1=S	4.4

# Continued; the last 2 above are carried over.
HNF4A DNA FP	FGF22 binding	B2AR ag	ALR inh	Ecoli growth	UCH37 DUB inh	Compound	LANA-H2B inh
2.1	i	3	nt	0.71	0.3	COc1ccc(S(=O)(=O)N2CCOCC2)cc1C(=O)NCc1c(C)nn(Cc2ccccc2)c1C	nt
-1.8	i	5	-2	0.74	-2.4	CCN1C(=O)/C(=C\N2CCN(c3ccc(F)cc3)CC2)SC1=S	4.4
-4.2	nt	2	3	0.73	13	CN(C)c1ccc(C=NCC2(O)CCOC(C)(C)C2)cc1 (stereo unspecified)	0.5
-3.3	i	-1	-2	0.69	-0.5	O=C(Nc1nc(-c2cccnc2)cs1)c1ccccc1Cl	3.9
-0.3	i	5	-2	0.62	-12	COc1ccc(NC(=O)C2CCN(c3cnccn3)CC2)cc1Cl	-0.8
1.3	i	-4	-1	0.61	0.9	CCOC(=O)C(=O)N(Nc1ccc(C)cc1)c1ccc(C)cc1	1.0
-1.3	i	-1	nt	0.72	0.8	O=C(CCn1cnc2ccccc2c1=O)Nc1nc(-c2ccc(Br)cc2)cs1	1.9
4.4	i	6	-2	0.75	2.3	COc1ccc(CCNC(=O)c2cc(COc3c(C)cccc3C)on2)c(OC)c1	6.6
6.8	nt	-5	0	nt	nt	COc1cc(/C=N/NC(=O)C(=O)NCc2cccnc2)cc(OC)c1OC	1.8
-0.5	nt	9	nt	nt	nt	C/C(=N\NC(=O)c1c(Br)c(C)nn1C)c1cccc(NC(=O)C2CCC2)c1	0.1
1.9	i	-3	0	0.73	-0.1	CC1CN(S(=O)(=O)c2cccc(C(=O)N3CCC(C(N)=O)CC3)c2)CC(C)O1 (stereo unspecified)	-1.8
4.3	i	-8	3	0.68	5.8	Cc1nc([N+](=O)[O-])c(C(=O)O)n1C	2.9
-4.4	+	-2	44	nt	nt	Nc1nnc(CC(=O)N/N=C/c2cc([N+](=O)[O-])cc(Br)c2O)s1	-0.1
-2.0	i	2	-4	0.81	2.2	CCO[C@@H]1OC(C(=O)NC2CC2)=C[C@H](c2ccc(C(F)(F)F)cc2)[C@H]1CCCO	5.0
2.4	i	-1	24	0.62	-0.6	CCCCn1nnc(NC(=O)C(c2ccccc2)c2ccccc2)n1	-5.4
1.3	nt	-4	100*	0.66	2.2	CCOc1ccc(N2C(=O)CSC2c2ccncc2)cc1 (stereo unspecified)	-0.5
42	i	41	nt	nt	nt	O=C1c2cccc(NCCNCCO)c2C(=O)c2cccc(NCCNCCO)c21	nt
7.4	nt	-5	58	0.76	0.0	O=C(NC1CCCCC1)c1nn2c(C(F)(F)F)cc(-c3ccco3)nc2c1Br	2.3

# Source: PubChem BioAssay
